# MLL AF4-AF9 inh: inhibitors of AF4 peptide binding to AF9, primary screen, biochemical, AlphaScreen, biotin-AF4 peptide, FLAG-AF9, single point; inhibition, % at 10 µM; Protein AF-9 (Homo sapiens), P42568; AID 651704, 2012; actives 0.47% (n = 350,000);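 active = every replicate reaching a set inhibition limit, whatever the replicate mean, cut at about 25% in these data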;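 note: 0% = plate neutral control median and 100% = total signal loss; the record names both 10 and 1 µM as test concentration; the first replicate is given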
# Target sequence (P42568 whole entry, looked up): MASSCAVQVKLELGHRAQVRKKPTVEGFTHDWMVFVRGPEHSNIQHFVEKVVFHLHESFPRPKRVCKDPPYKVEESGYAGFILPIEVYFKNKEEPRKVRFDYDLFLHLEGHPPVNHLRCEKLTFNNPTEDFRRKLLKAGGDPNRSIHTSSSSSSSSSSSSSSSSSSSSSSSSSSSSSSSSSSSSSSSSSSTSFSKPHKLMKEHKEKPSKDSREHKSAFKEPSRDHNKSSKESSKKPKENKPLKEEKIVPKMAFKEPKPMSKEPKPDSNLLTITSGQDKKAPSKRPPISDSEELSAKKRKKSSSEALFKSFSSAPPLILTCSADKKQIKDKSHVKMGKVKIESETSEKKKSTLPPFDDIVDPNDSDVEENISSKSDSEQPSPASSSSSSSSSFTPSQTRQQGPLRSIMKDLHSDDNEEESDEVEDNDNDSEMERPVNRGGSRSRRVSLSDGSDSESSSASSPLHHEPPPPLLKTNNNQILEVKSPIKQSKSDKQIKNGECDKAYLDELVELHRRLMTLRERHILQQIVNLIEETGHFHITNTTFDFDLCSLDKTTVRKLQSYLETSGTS
# rRNA inh HTS: reduced GFP signal of wild-type E. coli, primary screen, bacterial rRNA inhibitor project, GFP/RFP fluorescence, OD600, single point; E. coli WT GFP vs humanized-ribosome RFP mutants, 24 h; active compounds read low; DMSO median 0, no signal -100; AID 720706, 2013; actives 1.6% (n = 350,000); GFP signal change (wild-type ribosome), % (test concentration not listed);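 active = significant combined selectivity score with lowered wild-type GFP, culture density cut under 30%, mutant RFP and density less affected; inactive = any of these conditions unmet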; note: one replicate is shown; some compounds called inactive have numbers as strong as hits
# FGF22 binding: binders of human FGF22 protein, primary screen, FGF22 synaptogenesis inhibitor project, biophysical, thermal shift, single point; Fibroblast growth factor 22 (Homo sapiens), Q9HCT0; recombinant FGF22 thermal shift, SYPRO orange fluorescence; percent of sucrose octasulfate shift, DMSO zero; calls only at 9.99 µM; actives 1.5% (n = 340,000);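 active = melting point raised past a set limit in the mean and every replicate; three in four hits are not shown here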
# Target sequence (Q9HCT0 whole entry, looked up): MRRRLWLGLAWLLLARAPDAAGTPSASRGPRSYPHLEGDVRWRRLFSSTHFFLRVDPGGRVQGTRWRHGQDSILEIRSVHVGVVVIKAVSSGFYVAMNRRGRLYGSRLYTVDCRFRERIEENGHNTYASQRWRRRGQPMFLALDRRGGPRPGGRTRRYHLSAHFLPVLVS
# rRNA inh HTS OD600: second read-out of rRNA inh HTS, no call of its own (marks repeat the call); OD600 change, %; measured here: OD600 growth;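 optical density of the mix in the first replicate; 0 = DMSO median and -100 = no signal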
# rRNA inh HTS RFP: second read-out of rRNA inh HTS, no call of its own (marks repeat the call); RFP signal change, %; measured here: RFP humanized mutant strains;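 first replicate; 0 = DMSO median and -100 = no signal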
# * = called active by the depositor; i = inactive; & = joins results of further samples.
SMILES,MLL AF4-AF9 inh,rRNA inh HTS,rRNA inh HTS OD600,rRNA inh HTS RFP,FGF22 binding
CC(C)NC(=O)NCC[C@@H]1CC[C@@H](NC(=O)CN(C)C)[C@@H](CO)O1,1.3,-0.3,-0.4,-0.6,i
N#CC(=Cc1ccc(-c2ccccc2)cc1)C(=O)c1ccccc1,-6.4,-2.1,-6.1,4.1,i
CNC[C@@H]1Oc2ccc(NS(=O)(=O)c3ccc(F)cc3)cc2C(=O)N([C@@H](C)CO)C[C@H]1C,2.1,5.7,8.8,0.1,i
CN(C)CCCOc1ccc(-c2ccc3nncn3c2)cn1,-5.7,14.8,27.6,0.2,i
C[C@@H]1CCCCO[C@H](CN(C)S(=O)(=O)c2ccccc2)[C@@H](C)CN([C@H](C)CO)C(=O)c2cc(NC(=O)Nc3cccc4ccccc34)ccc2O1,-8.1,7.1,8.9,-1.1,i
C[C@H]1CCCCO[C@H](CN(C)C(=O)CCC(F)(F)F)[C@@H](C)CN([C@@H](C)CO)C(=O)c2cc(NS(=O)(=O)c3ccc(Cl)cc3)ccc2O1,-0.2,-2.1,-9.6,0.6,i
CS(=O)(=O)Nc1ccc2c(c1)[C@@H]1C[C@@H](CC(=O)NCCc3ccccc3)O[C@H](CO)[C@@H]1O2,1.4,0.8,-0.2,0.2,i
CO[C@@H]1CN(C)C(=O)c2cc(NC(C)=O)ccc2OC[C@@H](C)N(S(C)(=O)=O)C[C@H]1C,-3.3,3.4,15.0,0.8,i
O=C(NCC[C@@H]1CC[C@H](NC(=O)C2CCCCC2)[C@@H](CO)O1)c1cnccn1,-3.1,0.9,7.8,-0.2,i
O=C(C[C@H]1C=C[C@@H](NC(=O)Nc2ccc3c(c2)OCO3)[C@@H](CO)O1)NCc1ccc(Cl)cc1,1.9,-3.5,4.3,1.7,i
O=C(C[C@H]1C[C@@H]2c3cc(NC(=O)C4CCOCC4)ccc3O[C@@H]2[C@H](CO)O1)NCc1cc(F)ccc1F,5.2,5.3,8.6,0.2,i
CCCNC(=O)Nc1ccc2c(c1)C(=O)N(C)C[C@@H](OC)[C@@H](C)CN(C(=O)c1ccccc1F)[C@@H](C)CO2,4.4,1.3,-5.2,1.0,i
CC(C)NC(=O)N(C)C[C@H]1Oc2cc(-c3ccccc3F)ccc2S(=O)(=O)N([C@H](C)CO)C[C@@H]1C,-1.0,-4.8,12.2,-0.9,i
C[C@@H]1CN([C@@H](C)CO)C(=O)Cc2cc(NC(=O)Nc3ccc(F)cc3)ccc2O[C@@H]1CN(C)S(C)(=O)=O,1.0,2.2,8.4,-1.3,i
O=C(Nc1ccccc1F)N[C@H]1CC[C@H](CCNS(=O)(=O)c2ccc(F)cc2)O[C@@H]1CO,-0.1,0.8,3.0,3.4,i
COc1cc(NC(=O)C2(C)CCN2C(=O)C(C)C)cc(OC)c1OC (centres undefined),0.8,1.0,0.9,0.2,i
COc1ccc(C(C)(O)c2nc(-c3cccc(C(C)C)c3)cs2)cc1 (centres undefined),-1.9,-1.4,-34.2,3.2,i
CCN1[C@@H]2c3ccc(-c4ccncc4)c(=O)n3C[C@@H]2[C@@H](CO)[C@@H]1C(=O)NCc1ccccc1,-1.1,-1.3,3.0,1.5,i
Cc1ccc(CNC(=O)CN2NS(=O)(=O)c3ccccc3C2=O)cc1,-3.3,-0.7,4.3,-2.8,i
CC(C)C[C@@H](CN1CCC[C@@H]1CN1C(=S)NC[C@@H]1Cc1ccccc1)N1C[C@H](Cc2ccc(O)cc2)N(CCc2ccccc2)C1=S,0.1,17.1,2.9,12.4,i
C[C@H](CO)N1C[C@H](C)[C@@H](CN(C)Cc2cccc(C(=O)O)c2)OCc2ccccc2-c2ccccc2C1=O,-10.2,-0.2,4.7,-0.2,i
O=C(C[C@H]1CC[C@H]2[C@@H](COC[C@@H](O)CN2C(=O)C2CC2)O1)NCc1ccccc1Cl,-1.4,1.2,11.6,1.2,i
COc1cccc(CNC(=O)[C@H]2CCCN2C(=O)[C@H]2CCCN2C(=O)C2CCCCC2)c1,1.1,10.5,7.1,1.0,i
O=C(NCc1ccccc1Cl)[C@H]1CCCN1C(=O)[C@H]1CCCN1C(=O)c1cccc2ccccc12,1.6,-22.9*,-14.1*,3.7*,i
C[C@H]1CN([C@@H](C)CO)C(=O)c2cccc(NS(=O)(=O)c3ccc(F)cc3)c2O[C@H]1CN(C)S(=O)(=O)c1ccccc1,-0.3,-1.3,-0.5,1.7,i
C[C@@H]1CN([C@@H](C)CO)C(=O)c2cc(-c3cccc(F)c3)cnc2O[C@H]1CN(C)CC1CCCC1,-6.1,0.5,4.2,0.4,i
C[C@@H]1CCCCO[C@H](CN(C)S(=O)(=O)c2cn(C)cn2)[C@H](C)CN([C@@H](C)CO)C(=O)c2cc(NC(=O)CCCN(C)C)ccc2O1,-1.1,3.1,13.4,-3.3,i
C[C@@H](NC(=O)C[C@@H]1C[C@H]2c3cc(NC(=O)c4cccnc4)ccc3O[C@H]2[C@H](CO)O1)c1ccccc1,2.1,-1.3,0.6,0.3,i
CCCCNC(=O)C(NC(=O)c1cccnc1OC)C(=O)c1ccccc1 (centres undefined),1.3,-4.6,-4.8,3.7,i
CCC(=O)N1[C@H](C(=O)NC2CCC2)[C@@H](CO)[C@@H]2Cn3c(ccc(C4=CCCCC4)c3=O)[C@@H]21,-2.3,-0.8,-5.9,-1.3,i
O=C(O)C[C@@H]1CC[C@@H](NC(=O)Nc2ccccc2)[C@@H](CO)O1,1.3,1.5,-1.3,-1.8,i
C[C@@H]1CN([C@H](C)CO)S(=O)(=O)c2ccc(C3=CCCC3)cc2O[C@H]1CN(C)Cc1ccncc1,4.4,-39.2,-67.2,6.7,i
COc1ccc(-c2ccc([C@H]3[C@@H](CO)N4C(=O)CN(C(=O)C5CC5)C[C@@H]34)cc2)cc1,-0.8,0.3,0.2,-2.3,i
C[C@@H]1CN([C@@H](C)CO)C(=O)Cc2cc(NC(=O)CCCN(C)C)ccc2O[C@@H]1CN(C)Cc1ccc(-c2ccccc2)cc1,20.1,-30.8,-69.0,13.4,i
CCN1[C@@H]2c3ccc(-c4ccncc4)c(=O)n3C[C@H]1[C@H](CO)[C@H]2C(=O)NCCc1cn(C)cn1,-0.2,0.9,0.9,0.7,i
COc1cccc(CNC(=O)COC(=O)c2ccc(-c3ccc(O)cc3)cc2)c1,-2.2,-4.8,9.8,-0.3,i
C[C@H](CO)N1C[C@H](C)[C@H](CN(C)Cc2ccncc2)OCCCC[C@H](C)Oc2ccc(NC(=O)CCC(F)(F)F)cc2C1=O,-0.9,-0.8,-0.1,-1.0,i
O=[N+]([O-])c1cccnc1Nc1ccc(Cl)cc1,4.9,4.4,1.8,2.0,i
C[C@H](CO)N1C[C@H](C)[C@H](CN(C)Cc2ccc3c(c2)OCO3)OCCCC[C@H](C)Oc2ccc(NC(=O)Nc3ccc(F)cc3)cc2C1=O,11.6,-28.8,-57.2,19.5,i
C[C@H]1CN([C@@H](C)CO)C(=O)c2cccc(NS(C)(=O)=O)c2O[C@@H]1CN(C)CC1CC1,-3.8,4.8,3.8,-0.4,i
COCCNC(=S)N(CCCO)Cc1cc2cc3c(cc2[nH]c1=O)OCO3,1.3,12.2,17.6,-0.3,i
CCCCC[C@@H](C)N1C[C@H](COCc2ccccc2)Oc2cc(N3CC[C@@H](N(C)C)C3)ccc2S1(=O)=O,4.9,-13.9,-10.3,14.2,i
C[C@H]1CN([C@@H](C)CO)C(=O)Cc2cc(NS(=O)(=O)c3ccc(F)cc3)ccc2O[C@@H]1CN(C)C(=O)Nc1ccccc1,-2.4,2.1,3.0,-0.3,i
CC(C)(C)c1ccc(CC(=O)N2CCC2(C)C(=O)NS(=O)(=O)c2cccs2)cc1 (centres undefined),-3.6,6.2,7.5,-2.1,i
C[C@@H]1CN([C@H](C)CO)S(=O)(=O)c2ccc(-c3ccncc3)cc2O[C@@H]1CN(C)C(=O)c1ccc2c(c1)OCO2,4.0,-7.4,-14.1,1.6,i
O=C(Nc1cccc(C(=O)O)c1)/C(=C\c1ccccc1)NC(=O)c1ccco1,0.2,13.5,1.2,3.2,i
C[C@H]1CCCCO[C@H](CN(C)Cc2ccccc2)[C@@H](C)CN([C@@H](C)CO)C(=O)c2cc(NC(=O)CCCN(C)C)ccc2O1,2.8,5.1,6.2,-0.7,i
COc1ccc(-c2ccc(C(=O)NCCN(C)C)c3occc23)c(C)c1,7.7,4.1,13.5,-0.7,i

# For convenience, some entries already given:
SMILES,MLL AF4-AF9 inh,rRNA inh HTS,rRNA inh HTS OD600,rRNA inh HTS RFP,FGF22 binding
C[C@H](CO)N1C[C@H](C)[C@H](CN(C)Cc2ccncc2)OCCCC[C@H](C)Oc2ccc(NC(=O)CCC(F)(F)F)cc2C1=O,-0.9,-0.8,-0.1,-1.0,i
O=[N+]([O-])c1cccnc1Nc1ccc(Cl)cc1,4.9,4.4,1.8,2.0,i

# An excerpt from above in order of their number in rRNA inh HTS, descending:
canonical_smiles,rRNA inh HTS
CC(C)(C)c1ccc(CC(=O)N2CCC2(C)C(=O)NS(=O)(=O)c2cccs2)cc1 (centres undefined),6.2
C[C@H]1CN([C@@H](C)CO)C(=O)c2cccc(NS(C)(=O)=O)c2O[C@@H]1CN(C)CC1CC1,4.8
C[C@H]1CN([C@@H](C)CO)C(=O)Cc2cc(NS(=O)(=O)c3ccc(F)cc3)ccc2O[C@@H]1CN(C)C(=O)Nc1ccccc1,2.1

# Further results:
SMILES,MLL AF4-AF9 inh,rRNA inh HTS,rRNA inh HTS OD600,rRNA inh HTS RFP,FGF22 binding
C[C@@H]1CN([C@H](C)CO)C(=O)CCCn2nncc2CO[C@H]1CN(C)C(=O)Nc1ccc2c(c1)OCO2,-4.4&-3.8,3.1&4.1,4.4&1.4,-0.9&-2.8,i
CN1CCN(C(=O)C[C@H]2CC[C@@H]3[C@H](COC[C@H](O)CN3C(=O)Nc3ccc4c(c3)OCO4)O2)CC1,1.7,0.3,-13.1,-1.6,i
COC(=O)[C@@H]1[C@@H](CO)[C@@H]2Cn3c(ccc(C4=CCCCC4)c3=O)[C@@H]2N1Cc1ccc2c(c1)OCO2,3.2,-8.3,-21.4,2.9,i
C[C@@H]1CN([C@H](C)CO)C(=O)c2cc(NC(=O)Nc3ccc(C(F)(F)F)cc3)ccc2O[C@H]1CN(C)S(=O)(=O)c1cn(C)cn1,-0.8,-6.9,-4.7,1.3,i
CS(=O)(=O)N1CC2(C1)[C@H](c1ccccc1)[C@@H](CO)N2CC1CC1,-0.8,3.1,2.4,-1.3,i
O=C(C[C@H]1C=C[C@@H](NS(=O)(=O)c2ccc(F)cc2)[C@@H](CO)O1)NC1CCCCC1,-1.3,-0.9,2.0,-0.8,i
Cc1ccc(S(=O)(=O)Nc2cccc3c2O[C@H](CN(C)S(=O)(=O)c2cccs2)[C@@H](C)CN([C@H](C)CO)C3=O)cc1,0.5,-1.4,1.2,4.1,i
Cc1ccc(-c2ccc3c(c2)O[C@H](CN(C)C(=O)Nc2ccccc2)[C@H](C)CN([C@H](C)CO)S3(=O)=O)cc1,2.1,-4.5,-4.1,1.3,i
CNC(=O)C[C@H]1CC[C@@H]2[C@H](COc3ccc(NC(=O)Nc4ccccc4OC)cc3C(=O)N2C)O1,-0.9,-1.3,-4.6,2.3,i
Cc1c(C(=O)NCc2ccc3c(c2)OCCO3)sc(=O)n1Cc1ccccc1F,-2.9,-6.6,-14.4,-11.2,i
N#C[C@H]1[C@H](c2ccccc2)[C@H](CO)N1C(=O)Cc1ccccc1,-1.3,1.8,20.6,-3.2,i
Cc1noc(C)c1NC(=O)N[C@@H]1CC[C@H](CCNC(=O)C2CCCC2)O[C@H]1CO,-2.0,2.1,6.5,-0.4,i
Cc1ccc(S(=O)(=O)Nc2ccc3c(c2)CC(=O)N([C@H](C)CO)C[C@@H](C)[C@H](CN(C)Cc2ccc(Cl)c(Cl)c2)O3)cc1,0.4,2.2,7.0,2.7,i
CN1c2ccc(-c3ccccc3)cc2[C@@H]2[C@@H](CCN2C(=O)CC2CC2)[C@@H]1CO,-1.4,-21.1,-41.7,-5.0,i
Cc1noc(C)c1S(=O)(=O)N(C)C[C@H]1OCCCC[C@@H](C)Oc2ccc(NS(C)(=O)=O)cc2C(=O)N([C@H](C)CO)C[C@@H]1C,-12.0,-0.1,0.4,1.3,i
COc1ccc(NC(=O)C2(C)Cc3c(-c4cccc(C(F)(F)F)c4)ccnc3O2)cn1 (centres undefined),-1.7,-10.5,-43.5,8.9,i
CN(C)CCN(Cc1ccccc1)C(c1ccnc2ccccc12)c1nnnn1-c1ccc2c(c1)OCCO2 (centres undefined),4.7,-21.4,-10.7,-0.3,i
CO[C@H]1CN(C)C(=O)c2ccc(NC(=O)Cc3ccccc3)cc2OC[C@@H](C)N(CC2CC2)C[C@H]1C,-2.6,1.0,-0.8,-1.4,i
C#CCOc1ccc(/C=C2/C(=O)N(c3ccc(S(N)(=O)=O)cc3)N=C2C)cc1OC,-9.1,16.4,8.6,1.7,i
O=C(C[C@H]1CC[C@@H](NC(=O)Nc2ccc(C(F)(F)F)cc2)[C@@H](CO)O1)NCc1cccc(F)c1,1.4,-4.3,0.7,0.5,i

# Screening data deposited in PubChem by Broad Institute.

# A portion of the library (hit frequency here may not be typical).
